Screens (PubChem BioAssay)
miR-21 FLuc – raises the signal of a miR-21 reporter; 340,000 tested, under 10 active; HeLa miR-21 FLuc reporter, luciferase, 48 h; Potency, µM (top dose mostly 38.3 µM), for the others: at the highest dose reporter change, positive = more light; active = well fitted rising curve with a large enough effect; inconclusive = small, poorly fitted or top-dose-only effect; inactive = no such curve, though single readings can be large or run the other way;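 also: % of control where 0% means no effect; miR-21 action dims this reporter so a rising signal means less miR-21 action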
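Compounds were titrated across several concentrations (up to approximately 40 uM) and incubated 48 hours with HeLa miR-21-FLuc reporter cells (miR-21 target sequence downstream of FLuc, endogenous miR-21). Readout was firefly luciferase luminescence after lytic detection reagent.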
Rango release inh – prevents RanGTP from dissociating the Rango-importin beta complex. Biochemical FRET Rango-importin beta, RanGTP-induced dissociation. Potency, µM (titrated, usually from 46.1 µM), inactives show at the top dose activity change, negative = inhibition. 340,000 compounds, 0.071% hits. AID 540253; active means falling FRET ratio curve, often poorly fitted, with flat reads before Ran was added; inconclusive means other falling curves, or compound fluorescence or quenching; inactive means flat or rising ratio curve;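 also: potency is read from the fitted curve at half-maximal effect; % of control where 0% means no effect; nearly all actives have a fitted effect of over 45% in size; -100% = wells without RanGTP and RCC1; the record marks most hits as doubtful in a second field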
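Quantitative HTS using a FRET biosensor: 0.1 uM Rango, 0.25 uM importin beta, 0.6 uM Ran, 2 mM GTP, 0.2 uM RCC1 final, PBS with DTT, Tween-20 and BSA. Post-read taken 45 min after Ran addition.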
GLA inh pH 4.5 – blocks human alpha-galactosidase A at pH 4.5; P06280; purified enzyme, 4-MU-alpha-Gal fluorescence, pH 4.5; activity change, negative = inhibition, % at 105 µM; 230,000 tested, under 10 active; inconclusive = small, poorly fitted or top-dose-only inhibition, or a rising curve; inactive = flat fitted curve, though single readings scatter; no compound was filed as active;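 also: 0% = full activity with enzyme and -100% = basal without enzyme; dose as in the result columns while the protocol names 77 µM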
Target sequence (P06280 whole entry, looked up): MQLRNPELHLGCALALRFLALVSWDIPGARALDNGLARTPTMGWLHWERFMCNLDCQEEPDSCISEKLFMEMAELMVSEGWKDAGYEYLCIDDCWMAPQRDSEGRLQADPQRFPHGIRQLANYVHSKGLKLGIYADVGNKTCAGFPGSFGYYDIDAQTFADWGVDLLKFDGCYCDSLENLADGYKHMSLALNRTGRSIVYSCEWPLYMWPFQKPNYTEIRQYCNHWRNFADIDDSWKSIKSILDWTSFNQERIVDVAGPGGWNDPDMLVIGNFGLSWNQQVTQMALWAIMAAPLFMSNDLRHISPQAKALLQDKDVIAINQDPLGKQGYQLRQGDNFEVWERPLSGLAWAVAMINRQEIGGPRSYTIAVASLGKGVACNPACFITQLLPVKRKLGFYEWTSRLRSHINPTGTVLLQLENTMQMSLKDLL
Rango complex inh – prevents formation of the Rango-importin beta complex; Q14974; Rango CFP/YFP FRET sensor + importin beta, 45 min; Potency, µM (highest dose often 92.2 µM), inactives show top-dose inhibition of complex formation; 340,000 compounds, 0.031% hits; active = rising FRET ratio curve, often small or poorly fitted; inconclusive = mostly compound fluorescence or quenching in the first reads; inactive = flat curves in all reads;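 also: potency is read from the fitted curve at half-maximal effect; 0% = DMSO wells and 100% = buffer wells lacking importin beta; nearly all actives have a fitted effect of over 15% in size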
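FRET biosensor Rango (snurportin 1 IBB between N-terminal EYFP and C-terminal Cerulean), 50 nM in PBS/1 mM DTT/0.02% Tween-20/0.1% BSA, preincubated 5 min RT with compound; 0.125 microM importin beta added, 45 min RT, CFP/YFP FRET ratio read.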
Active calls of the source: *; ? = inconclusive; · = no result given; & = joins results of further samples. These rows are one share of the data; rates above refer to the full screens.

miR-21 FLuc	Rango release inh	SMILES	GLA inh pH 4.5	Rango complex inh
-3.7%	-17.7%	O=C(COc1ccc2ccccc2c1)NCCNC(=O)COc1ccc2ccccc2c1	-3.9	6.0%
·	-19.0%	Cc1c(NS(=O)(=O)c2cc([N+](=O)[O-])ccc2Cl)c(=O)n(-c2ccccc2)n1C	·	-4.1%
-42.9%	-10.7%	CCOC(=O)/C(C#N)=C/c1cc(C)n(-c2ccccc2)c1C	-5.6	-2.5%
1.4%	1.3%	CCCCN(CC)CCNC(=O)CCNC(=O)Cn1ccc2ccccc2c1=O	0.4	-1.2%
0.3%	11.4%	CCc1csc(CNC(=O)C2CCC(=O)N(Cc3cccc(F)c3)C2)n1 (centres undefined)	·	4.8%
5.5%	19.1%	CC(=O)NCC(O)c1ccc([N+](=O)[O-])cc1 (centres undefined)	2.2	5.8%
·	0.0%	Cc1csc(=O)n1CC(=O)Nc1ccc(Cl)c(Cl)c1	·	-3.2%
27.9%	2.1%	Cc1ccc(Nc2c(-c3ccccn3)nc3cc(C)ccn23)cc1	-7.6	0.8%
0.5%	30.7%	CCN1CCN(CC(=O)Nc2cc(F)ccc2C)CC1	3.9	?
·	-18.9%	Cc1ccc(S(=O)(=O)N2CCN(C(=O)COC(=O)/C=C/c3cccc(Cl)c3)CC2)c(C)c1	·	0.1%
-4.0%	18.5%	C=CCNC(=O)C1CC(=O)N(c2ccc(C)cc2)C1 (centres undefined)	-6.2	-1.7%
0.3%	-5.1%	CCCCNC(=O)NS(=O)(=O)c1ccc(NC(=O)C(NC(N)=O)C(C)CC)cc1 (centres undefined)	3.5	3.6%
·	7.5%	Cc1cc(C)c(S(=O)(=O)Nc2ccccc2)c(C)c1	·	2.2%
6.4%	2.9%	CCC/S(CC1CC1(Cl)Cl)=N\S(=O)(=O)c1ccc(C)cc1 (centres undefined)	8.3	5.2%
-0.2%	-1.2%	COC(=O)C1CN(C(=O)COc2cc(C)cc(C)c2)c2ccccc2O1 (centres undefined)	·	-1.3%
15.3%	-6.4%	Cc1ccc2c(c1)N(CC(=O)NCCCc1ccccc1)C(=O)c1cccnc1O2	·	-2.9%
10.0%	0.0%	CCCn1c(-c2cc(OC)c(OC)c(OC)c2)nc2nc3ccccc3nc21	-4.0	0.8%
-0.4%	?	CCCn1c(C(C)Nc2nc(-c3ccc(Cl)c([N+](=O)[O-])c3)cs2)nc2cc(Cl)c(N3CCCCC3)cc21 (centres undefined)	·	0.2%
-30.4%	-13.3%	O=C(CNC(=O)c1ccncc1)N/N=C/c1cc(Br)ccc1OCc1ccccc1	-13.8	3.8%
12.5%	-8.0%	COCc1nnc(NC(=O)c2ccc(S(=O)(=O)N(C)C3CCCCC3)cc2)o1	-5.9	?
23.2%	-1.8%	COc1ccccc1N=C(C)C1=C(O)CC(c2ccccc2)CC1=O (centres undefined)	5.3	-0.1%
-12.7%	-6.6%	Cc1[nH]nc2c1C(c1ccccc1F)NC2=O (centres undefined)	-1.1	2.4%
-58.0%	-22.2%	S=c1nc(COc2ccccc2)[nH]c2ccccc12	·	-3.1%
·	3.0%	Cc1cccc(NC(=O)CSCC(=O)N(CCC(C)C)c2c(N)n(Cc3ccccc3)c(=O)[nH]c2=O)c1	·	-2.0%
-6.7%	0.4%	COc1ccc(COC(=O)NNC(=O)c2ccc(OC)cc2)cc1	-3.8	6.3%
-18.3%	9.2%	CSc1nncc(-c2ccc(F)cc2)n1	-10.0	2.1%
-36.2%	-0.9%	CCCCOc1ccc(-c2nnn(C(C)(C)C(=O)OC)n2)cc1	-6.9	-6.1%
14.0%	-3.8%	COC(=O)c1c(NC(=O)CN2CCC3(O)CCCCC3C2c2ccccc2OC)sc(C)c1C (centres undefined)	10.7	0.9%
6.3%	13.3%	COc1ccc(C2=NS(=O)(=O)N(C)C(C(=O)Nc3cc(OC)c(OC)c(OC)c3)=C2)cc1	·	3.3%
17.5%	-8.5%	CCOC(=O)CCc1c(C)c(C#N)c2[nH]c3ccccc3n2c1=O	?	?
-5.9%	-7.6%	CCOc1ccccc1C1N(c2ccc(F)cc2)C(=O)C2CCCN21 (centres undefined)	-5.7	-0.4%
·	-8.2%	CC(NS(=O)(=O)c1ccccc1)C1CC2CCC1C2 (centres undefined)	·	-1.1%
-3.5%	19.5%	CN1CCN(S(=O)(=O)c2ccc(Cl)c3ccccc23)CC1	·	0.9%
7.0%	12.1%	COc1ccc(CCNc2cc(N3CCN(C(=O)c4ccccc4F)CC3)ccc2[N+](=O)[O-])cc1OC	-18.8	4.5%
-41.7%	28.3%	CCc1ccc(N(C(C)=O)c2nc(CCl)cs2)cc1	3.5	2.2%
·	2.9%	CCC(CO)Oc1cc(NC(=O)c2ccc([N+](=O)[O-])cc2)c2ncn(C(C)C)c2c1 (centres undefined)	·	-1.9%
-10.3%	17.0%	Nc1cc(=O)nc(SCC(=O)Nc2ccccc2)n1-c1ccccc1	1.7	-0.2%
0.1%	7.9%	O=C(CN1CCN(c2cccc(C(F)(F)F)c2)CC1)NCc1ccccc1	·	2.5%
-1.3%&23.4%	0.0%	COc1ccccc1N1CCN(c2ccc3cc(S(=O)(=O)N4CCCCC4)ccc3n2)CC1	·	-0.3%
-1.1%	-9.5%	O=C(O)CCCn1cc(NC(=O)c2ccc(Br)o2)cn1	-1.8	1.5%
·	42.7%	CCOC(=O)C1=C(COC(=O)CNC(=O)c2ccc(C(C)(C)C)cc2)NC(=O)NC1C (centres undefined)	·	-2.3%
-56.6%	0.1%	Nc1c(-c2ccccn2)cnn1-c1nc(-c2ccc(F)cc2)cs1	11.4	-0.7%
16.5%	-6.8%	COc1ccc(OC)c(S(=O)(=O)N2CCC(C(=O)N3CCc4ccccc4C3)CC2)c1	2.1	1.7%
-4.8%	9.1%	Cc1ccccc1C(=O)NNC1CC(=O)N(c2ccc3c(c2)OCCO3)C1=O (centres undefined)	-2.2	-6.3%
18.7%	-5.4%	CC(C)(C)c1ccc(C(=O)Nc2cccc(C(=O)N3CCOCC3)c2)cc1	·	-0.3%
-49.7%	-6.6%	Nc1ccc2oc3ccccc3c2c1	5.3	?
·	0.3%	Cc1ccccc1Cc1c(C)nc2c(C(=O)N3CCN(Cc4ccc5c(c4)OCO5)CC3)cnn2c1C	·	0.3%
-5.9%	-10.2%	CC1CCCCC12NC(=O)N(CC(=O)c1ccc[nH]1)C2=O (centres undefined)	1.6	0.3%
-1.7%	-0.1%	O=C(/C=C/c1ccccc1)NC(=S)N1CCSCC1	1.2	-1.6%
-4.6%	3.4%	Cc1cccc(-c2nnc3n2N=C(c2ccccc2Br)CS3)c1	-8.3	1.1%

(more compounds)
miR-21 FLuc	Rango release inh	SMILES	GLA inh pH 4.5	Rango complex inh
-6.4%	-3.1%	CCOC(=O)c1[nH]c2ccc(OC)cc2c1NC(=S)N1CCN(c2ccccc2)CC1	4.2	-0.8%
-15.0%	-19.4%	O=c1[nH]c(Cc2ccc(F)cc2)nc2scc(-c3ccc(F)cc3)c12	-2.4	6.9%
25.8%	11.9%	CCCC(=O)Nc1nc2ccc(S(=O)(=O)N3CCCCC3)cc2s1	-6.4	-0.3%
-1.0%&-11.8%	34.3%	CC(=O)N1CCOc2cc(S(=O)(=O)NC(C)c3ccccc3)c(Cl)cc21 (centres undefined)	·	5.8%
-0.8%	-11.5%	CC(=O)NC(Cc1ccc(F)c(F)c1)C(=O)NC1CCN(C(=O)c2ccc(Cl)cc2)CC1 (centres undefined)	·	0.3%
-17.8%	-2.0%	O=C(Cn1cnc2c(oc3ccccc32)c1=O)NCc1ccco1	0.5	-3.0%
·	-0.8%	CC1CCN(C(=O)CSC2=NS(=O)(=O)c3cc(F)ccc3N2)CC1	·	?
-14.2%	17.9%	O=C(COc1ccccc1Cl)Nc1cc(Cl)ccc1O	-1.6	?
0.3%	?	CCOC(=O)Cn1c(=NC(=O)c2cc(-c3cccs3)nc3ccccc23)sc2cc(S(N)(=O)=O)ccc21	6.5	?
-3.7%	7.8%	Cc1ccc2cc(C3CC(c4ccco4)=NN3C(=O)CCCC(=O)O)c(Cl)nc2c1 (centres undefined)	-5.7	-0.6%
-3.1%	1.9%	CC(OC(=O)c1cccc(-n2cnnn2)c1)C(=O)N(C)c1ccccc1 (centres undefined)	·	6.6%
-1.4%	0.6%	COc1ccc(OC)c(NC(=S)NC(=O)c2ccc(Br)o2)c1	·	-0.8%
·	1.6%	CN(Cc1cccc(F)c1)C(=O)CSc1nnc(C2CC2)n1C1CC1	·	6.6%
-4.6%	7.5%	O=C(N/N=C/c1cccnc1)c1sc2ccccc2c1Cl	·	-0.4%
·	46.6%	COCc1c(C(=O)Nc2ccc(C)c(S(=O)(=O)N3CCOCC3)c2)oc2ccccc12	·	-2.3%
11.4%	22.5%	CCOC(=O)c1ccc(S(=O)(=O)Nc2ccccc2-c2nnn(CC)n2)cc1	3.6	-3.8%
-9.9%	7.2%	CC(=O)Nc1nnc(Cc2ccccc2)s1	6.9	2.9%
-26.4%	-3.0%	N=C1C(c2nc3ccccc3s2)=C(O)CN1CCCO	-7.5	-2.5%
8.6%	5.7%	CC(C)n1nnnc1SCC(=O)N1CCN(C(=O)c2ccco2)CC1	-2.6	0.6%
-17.0%	11.1%	CCCCN1C(=O)N(c2nnc(C(C)(C)C)s2)C(O)C1c1ccc(C)cc1 (centres undefined)	-6.8	3.6%
-1.9%	13.4%	Cc1nnc(SCCn2c(N3CCN(C)CC3)nc3c2c(=O)n(C)c(=O)n3C)s1	2.8	-0.7%
-7.6%	-21.6%	Cc1cc(NC(=O)/C(C#N)=C/c2ccc(-c3cccc(C(F)(F)F)c3)o2)n(-c2ccccc2)n1	-1.6	?
-0.4%	5.6%	CC(C)NC(=O)Cn1cc(S(=O)(=O)N2CCCC2)c(S(=O)(=O)N2CCCC2)c1	·	-3.8%
·	0.6%	C=C(CN(C)C)C(=O)c1ccc(C)cc1C	·	-0.8%
-106.5%	?	O=C1/C(=C/c2ccc(O)c(O)c2)Oc2cc(O)ccc21	-2.7	?
-36.6%	7.6%	Cc1cc(NC(=O)c2ccc(Cl)cc2)c(C)cc1O	5.1	2.7%
·	-8.4%	CN(C(=O)c1cnccn1)c1c(N)n(Cc2ccccc2)c(=O)[nH]c1=O	·	-4.2%
-1.5%	-11.7%	CCCS(=O)(=O)N1CCC(C(=O)NCc2ccco2)CC1	0.2	-0.6%
-2.8%	-1.4%	CCCCCNC(=O)CCn1c(=O)oc2ccccc21	6.9	-6.0%
-3.5%	-9.3%	COc1ccc(S(=O)(=O)NNC(=S)NCCc2ccccc2)c(OC)c1	·	1.4%
-1.6%	1.0%	CC(C)(C)Sc1nc(O)cc(=O)[nH]1	2.0	-1.5%
3.3%	-13.9%	CCOC(=O)/C(C#N)=C/c1cc2ccccc2nc1Cl	-4.3	-2.6%
-11.0%	-10.7%	O=C(Nc1nnc(Cc2ccccc2)s1)c1cccnc1	-2.4	3.5%
-8.8%	1.1%	O=C(CCC1CCCC1)N1CCN(C2CCCC2)CC1	-4.1	-2.1%
-1.8%	-8.1%	CCCCC(=O)Nc1c2c(nn1-c1ccc(C)cc1)CS(=O)(=O)C2	·	-5.5%
-12.6%	4.2%	COc1ccc(CN2CCNC(=O)C2CC(=O)NCCC2=CCCCC2)cc1OC (centres undefined)	2.0	-0.6%

Compounds above that have a CF3 group (2):
miR-21 FLuc	Rango release inh	SMILES	GLA inh pH 4.5	Rango complex inh
0.1%	7.9%	O=C(CN1CCN(c2cccc(C(F)(F)F)c2)CC1)NCc1ccccc1	·	2.5%
-7.6%	-21.6%	Cc1cc(NC(=O)/C(C#N)=C/c2ccc(-c3cccc(C(F)(F)F)c3)o2)n(-c2ccccc2)n1	-1.6	?
